Bioassay records as filed in PubChem.
Ecoli rRNA inh – inhibitors of bacterial rRNA selective over humanized ribosomes. E. coli WT GFP vs humanized-ribosome RFP mutants, fluorescence, 24 h; active compounds read low; DMSO median 0, no signal -100. GFP signal change (wild-type ribosome), % (test concentration not listed). actives 1.6% (n = 350,000). AID 720706;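 active = significant combined selectivity score with lowered wild-type GFP, culture density cut under 30%, mutant RFP and density less affected; inactive = any of these conditions unmet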; also: one replicate is shown; some compounds called inactive have numbers as strong as hits
FGF22 binding – binders of recombinant human FGF22 by thermal shift | actives 1.5% (n = 340,000) | SYPRO orange fluorescence; percent of sucrose octasulfate shift, DMSO zero | AID 651658 | calls only at 9.99 µM | Q9HCT0;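 active = melting point raised past a set limit in the mean and every replicate; three in four hits are not shown here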
Target sequence (Q9HCT0 whole entry, looked up): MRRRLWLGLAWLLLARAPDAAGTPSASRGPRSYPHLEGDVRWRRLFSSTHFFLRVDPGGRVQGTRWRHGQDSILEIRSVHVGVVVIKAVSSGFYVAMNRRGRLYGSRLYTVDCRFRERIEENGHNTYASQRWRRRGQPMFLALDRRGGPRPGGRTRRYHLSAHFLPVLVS
Ecoli rRNA inh OD600 – further read-out of Ecoli rRNA inh, marked with its call; OD600 change, %; measured here: OD600 growth;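 optical density of the mix in the first replicate; 0 = DMSO median and -100 = no signal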
Ecoli rRNA inh RFP – second read-out of Ecoli rRNA inh, no call of its own (marks repeat the call); RFP signal change, %; measured here: RFP humanized mutant strains;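 first replicate; 0 = DMSO median and -100 = no signal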
Active calls of the source: *; i = inactive. Only part of the results is shown; the hit share may differ from the screen's.

Structure,Ecoli rRNA inh,Ecoli rRNA inh OD600,Ecoli rRNA inh RFP,FGF22 binding
CN(C)C(=O)C[C@@H]1CC[C@H](NC(=O)NC2CCCC2)[C@H](CO)O1,1,0,-2.2,i
O=C(O)C[C@H]1C[C@@H]2c3cc(NC(=O)NC4CCCC4)ccc3O[C@@H]2[C@H](CO)O1,2,-6,-0.8,i
CCC(=O)N(C)C[C@@H]1Oc2ncc(/C=C/c3ccccc3)cc2C(=O)N([C@@H](C)CO)C[C@H]1C,-4,-8,1.7,i
O=C(c1ccncc1)N1CCCCN2[C@H](C1)[C@H](c1ccc(-c3ccccc3)cc1)[C@@H]2CO,0,1,-0.3,i
CN1c2ccc(-c3ccccc3)cc2[C@H]2[C@H](CCN2C(=O)Cc2ccccc2)[C@@H]1CO,-36,-58,3.7,i
C[C@@H]1CCCCO[C@H](CN(C)C)[C@@H](C)CN([C@@H](C)CO)C(=O)c2cc(NS(=O)(=O)c3cccs3)ccc2O1,0,0,1.4,i
COCC(=O)N1[C@H](C#N)[C@H](c2ccc(-c3cccc(F)c3)cc2)[C@H]1CO,-2,0,-1.5,i
C[C@H](CO)N1C[C@H](C)[C@@H](CN(C)Cc2ccncc2)Oc2ccc(NS(C)(=O)=O)cc2C1=O,6,12,-3.1,i
O=C(c1ccccn1)N1C[C@@H]2[C@H](c3ccccc31)[C@H](CO)N2C(=O)Nc1ccccc1,4,3,-1.3,i
COc1cccc(NC(=O)N2C[C@H](O)COC[C@H]3O[C@@H](CC(=O)NC4CCCC4)CC[C@@H]32)c1,-1,4,0.1,i
CN(C)C(=O)c1cccc(-c2ccc3c(c2)[C@@H]2[C@@H](CCN2S(=O)(=O)c2cn(C)cn2)[C@H](CO)N3)c1,5,14,-3.2,i
O=C(CC(F)(F)F)N1C[C@H]2[C@@H](c3ccccc31)[C@@H](CO)N2C(=O)C1CCOCC1,4,5,-3.7,i
C[C@H]1CN([C@@H](C)CO)C(=O)c2cc(C#Cc3ccccc3F)cnc2O[C@@H]1CN(C)C(=O)c1ccc2c(c1)OCO2,1,-14,6.4,i
C[C@H](CO)N1C[C@H](C)[C@H](CN(C)Cc2ccc(-c3ccccc3)cc2)Oc2ccc(NC(=O)C3CCCCC3)cc2CC1=O,-4,-4,-1.9,i
C[C@H](CO)N1C[C@H](C)[C@@H](CN(C)C)Oc2cc(/C=C/c3ccccc3)ccc2S1(=O)=O,0,11,4.9,i
C[C@H](CO)N1C[C@H](C)[C@@H](CN(C)C(=O)Nc2ccc(C(F)(F)F)cc2)Oc2ncc(C#C[C@@H](C)O)cc2C1=O,-4,4,0.1,i
C[C@H](CO)N1C[C@H](C)[C@@H](CN(C)Cc2ccc3c(c2)OCO3)Oc2ccc(NS(=O)(=O)c3cccs3)cc2C1=O,2,5,-2.0,i
Cn1cnc(S(=O)(=O)N[C@H]2C=C[C@H](CC(=O)NCC3CC3)O[C@@H]2CO)c1,0,4,-4.8,i
COc1ccccc1CN(C)C[C@H]1OCc2ccccc2-c2c(n(C)c3ccccc23)C(=O)N([C@@H](C)CO)C[C@H]1C,5,-9,7.9,i
C[C@@H]1CCCCO[C@H](CN(C)C(=O)Cc2ccccc2)[C@@H](C)CN([C@H](C)CO)C(=O)c2cc(NC(=O)NC3CCCCC3)ccc2O1,1,3,1.4,i
COc1ccc2c3c([nH]c2c1)[C@@H](CO)N(C(=O)Nc1ccc(F)cc1)CC31CCN(C(=O)c2ccccc2F)CC1,-7,-14,0.8,i
CCNC(=O)C[C@@H]1CC[C@@H]2[C@H](COc3ccc(NC(=O)NC(C)C)cc3C(=O)N2C)O1,2,5,-3.0,i
Cc1noc(C)c1S(=O)(=O)N(C)C[C@@H]1Oc2ccc(NC(=O)Nc3ccc4c(c3)OCO4)cc2CC(=O)N([C@@H](C)CO)C[C@@H]1C,3,-3,0.0,i
CCC(=O)Nc1ccc2c(c1)C(=O)N(C)[C@@H]1CC[C@H](CC(=O)NCc3ccccc3)O[C@H]1CO2,-1,-5,-1.8,i
CS(=O)(=O)N1[C@H](CO)[C@@H](c2ccc(C#CC3CCCCC3)cc2)[C@@H]1C#N,1,3,-0.9,i
C[C@@H]1CN([C@@H](C)CO)C(=O)c2cccc(NS(=O)(=O)c3ccc(Cl)cc3)c2O[C@@H]1CN(C)S(C)(=O)=O,-15,-33,6.2,i
C[C@H]1CN([C@@H](C)CO)C(=O)c2cc(C#Cc3ccccn3)cnc2O[C@@H]1CN(C)Cc1cncnc1,-1,15,1.0,i
Cc1cccc(S(=O)(=O)N2CCCCN3[C@H](CO)[C@H](c4ccc(C#C[C@H](C)O)cc4)[C@H]3C2)c1,-3,8,6.7,i
CN1C[C@@H]2[C@H](c3ccccc31)[C@@H](CO)N2C(=O)Nc1ccccc1Cl,-7,-6,-1.4,i
CC(C)NC(=O)Nc1ccc2c(c1)CC(=O)N([C@@H](C)CO)C[C@@H](C)[C@H](CN(C)Cc1ccc(Oc3ccccc3)cc1)O2,3,-19,19,i

Next part; the last four above are carried over.
Structure,Ecoli rRNA inh,Ecoli rRNA inh OD600,Ecoli rRNA inh RFP,FGF22 binding
C[C@H]1CN([C@@H](C)CO)C(=O)c2cc(C#Cc3ccccn3)cnc2O[C@@H]1CN(C)Cc1cncnc1,-1,15,1.0,i
Cc1cccc(S(=O)(=O)N2CCCCN3[C@H](CO)[C@H](c4ccc(C#C[C@H](C)O)cc4)[C@H]3C2)c1,-3,8,6.7,i
CN1C[C@@H]2[C@H](c3ccccc31)[C@@H](CO)N2C(=O)Nc1ccccc1Cl,-7,-6,-1.4,i
CC(C)NC(=O)Nc1ccc2c(c1)CC(=O)N([C@@H](C)CO)C[C@@H](C)[C@H](CN(C)Cc1ccc(Oc3ccccc3)cc1)O2,3,-19,19,i
C[C@@H]1CCCCO[C@@H](CN(C)CC2CC2)[C@H](C)CN([C@@H](C)CO)C(=O)c2cc(NC(=O)CCCN(C)C)ccc2O1,3,2,-1.0,i
COC(=O)C[C@@H]1CC[C@H]2[C@@H](COc3ccc(NC(=O)c4ccc(F)cc4)cc3C(=O)N2C)O1,3,1,4.9,i
O=C(C[C@@H]1C[C@H]2c3cc(NS(=O)(=O)c4ccc(F)cc4)ccc3O[C@H]2[C@@H](CO)O1)NCCN1CCCCC1,3,-1,-0.4,i
CCCNC(=O)C[C@H]1CC[C@@H]2[C@H](COc3ccc(NC(=O)c4cccc(OC)c4)cc3C(=O)N2C)O1,-2,4,-0.7,i
O=C(NCc1ccccc1)[C@@H]1CCCN1C(=O)[C@H]1CCCN1C(=O)c1ccc(Cl)cc1,5,11,2.2,i
COc1ccc(C(=O)Nc2ccc3c(c2)C(=O)N(C)[C@@H]2CC[C@H](CC(=O)NCC4CC4)O[C@@H]2CO3)cc1,-3,-1,-1.8,i
C[C@H](CO)N1C[C@H](C)[C@H](CN(C)C)OCCCC[C@H](C)Oc2ccc(NC(=O)Cc3ccccc3)cc2C1=O,3,2,-0.7,i
CC(C)CC#Cc1ccc2c(c1)O[C@H](CN(C)C(=O)c1ccccn1)[C@H](C)CN([C@@H](C)CO)S2(=O)=O,-3,-10,2.1,i
Cc1cc(N2CCN(C(=O)OC(C)(C)C)C[C@@H]2C)ccc1Br,-28,-49,-4.5,i
OC[C@H]1[C@H](c2ccc(C#CC3(O)CCCC3)cc2)[C@H]2CN(Cc3ccncc3)CCCCN21,5,9,-3.6,i
O=C(Nc1ccc(Cl)c(Cl)c1)N[C@H]1CC[C@@H](CCn2cc(C3CC3)nn2)O[C@H]1CO,-13,-23,0.1,i
COC(=O)C[C@@H]1CC[C@H](NS(=O)(=O)c2ccccc2F)[C@H](CO)O1,0,9,-1.7,i
CO[C@@H](CN(C)S(=O)(=O)c1ccc(F)cc1)[C@@H](C)CN(Cc1ccccc1Cl)[C@H](C)CO,-10,-24,-7.7,i
C[C@@H]1CCCCO[C@@H](CN(C)Cc2ccc(C(F)(F)F)cc2)[C@@H](C)CN([C@H](C)CO)C(=O)c2cc(NC(=O)CCCN(C)C)ccc2O1,4,8,1.5,i
Fc1ccc2cc(C3=CCCCC3)ncc2c1,6,6,6.4,i
C[C@@H]1CN([C@@H](C)CO)C(=O)Cc2cc(NS(C)(=O)=O)ccc2O[C@@H]1CN(C)Cc1ccc(Cl)c(Cl)c1,-58,-77,-18,i
COc1ccc(S(=O)(=O)Nc2ccc3c(c2)CC(=O)N([C@H](C)CO)C[C@@H](C)[C@@H](CN(C)C(=O)NC(C)C)O3)cc1,0,3,0.0,i
Cc1ccc(-c2ccc([C@H]3[C@@H](CO)N4CCCCN(C(=O)Nc5ccccc5)C[C@@H]34)cc2)cc1,-8,-41,28,i
O=C(C[C@H]1C[C@H]2c3cc(NC(=O)Cc4ccncc4)ccc3O[C@H]2[C@H](CO)O1)NCc1ccc(-c2ccccc2)cc1,-4,-13,0.6,i
CNC[C@H]1OCCCC[C@@H](C)Oc2ccc(N)cc2C(=O)N([C@H](C)CO)C[C@@H]1C,3,4,-3.8,i
C[C@@H]1CN([C@@H](C)CO)C(=O)c2cc(NC(=O)c3ccncc3)ccc2O[C@@H](C)CCCCO[C@@H]1CN(C)C(=O)Nc1ccc(C(F)(F)F)cc1,2,-3,2.3,i
COc1ccc(-c2ccc([C@@H]3[C@H](C#N)N(C(=O)c4cccnc4)[C@H]3CO)cc2)cc1,-5,-16,2.1,i
Cc1ccc(S(=O)(=O)N(C)C[C@@H]2Oc3ccc(NC(=O)Nc4ccc5c(c4)OCO5)cc3CC(=O)N([C@H](C)CO)C[C@H]2C)cc1,-4,1,-3.1,i
C[C@@H]1CN([C@@H](C)CO)C(=O)c2c(c3ccccc3n2C)-c2ccccc2CO[C@@H]1CN(C)C(=O)c1ccccc1,1,3,5.9,i
COc1ccc2c3c(n(C)c2c1)[C@H](CO)N(C(=O)c1ccccn1)CC31CN(C(=O)Cc2ccccc2)C1,-5,-2,1.0,i
CCN=C1NC(c2ccc(F)cc2)C(C(=O)OC)=C(C)N1Cc1ccccc1C(F)(F)F (stereo not drawn),1,0,11,i
Cc1ccc(S(=O)(=O)N[C@H]2CC[C@H](CCn3cc(C(C)C)nn3)O[C@@H]2CO)cc1,1,1,-2.8,i
C[C@H](CO)N1C[C@H](C)[C@H](CN(C)Cc2ccccc2)Oc2ccc(NC(=O)c3ccncc3)cc2CC1=O,0,-6,-1.5,i
C[C@@H]1CN([C@@H](C)CO)C(=O)c2cccc(NC(=O)C3CCCCC3)c2O[C@H]1CN(C)C(=O)Nc1ccc(C(F)(F)F)cc1,-1,3,-1.5,i
O=C(Nc1ccc(F)cc1)N1C[C@@H]2[C@H](c3ccccc31)[C@H](CO)N2C(=O)c1ccc(F)cc1,0,9,-1.4,i

Copied from the list.
`O=C(c1ccncc1)N1CCCCN2[C@H](C1)[C@H](c1ccc(-c3ccccc3)cc1)[C@@H]2CO` | Ecoli rRNA inh OD600: 1
`O=C(NCc1ccccc1)[C@@H]1CCCN1C(=O)[C@H]1CCCN1C(=O)c1ccc(Cl)cc1` | Ecoli rRNA inh RFP: 2.2

Additional entries.
Structure,Ecoli rRNA inh,Ecoli rRNA inh OD600,Ecoli rRNA inh RFP,FGF22 binding
C[C@@H](NC(=O)C[C@H]1CC[C@H]2[C@@H](COC[C@@H](O)CN2Cc2ccc(C(F)(F)F)cc2)O1)c1ccccc1,-11,-26,-1.4,i
C[C@H]1CN([C@@H](C)CO)C(=O)c2cc(C#CC3CCCCC3)cnc2O[C@@H]1CN(C)S(=O)(=O)c1ccc(F)cc1,1,2,1.8,i
C[C@H]1CN([C@@H](C)CO)C(=O)c2cc(N(C)C)ccc2O[C@@H]1CN(C)Cc1ccc(Oc2ccccc2)cc1,-2,-1,5.8,i
C[C@@H]1CCCCO[C@@H](CN(C)Cc2ccc3c(c2)OCO3)[C@@H](C)CN([C@H](C)CO)C(=O)c2cc(NC(=O)NC3CCCCC3)ccc2O1,4,1,1.9,i
Cc1ccc(-c2cnc3c(c2)C(=O)N([C@@H](C)CO)C[C@@H](C)[C@@H](CN(C)S(C)(=O)=O)O3)cc1,5,17,-2.1,i
COc1ccc(NC(=O)N(C)C[C@H]2Oc3c(NC(=O)NC(C)C)cccc3C(=O)N([C@@H](C)CO)C[C@@H]2C)cc1,3,6,-1.5,i
C[C@@H]1CN([C@H](C)CO)S(=O)(=O)c2ccc(C#CC3CC3)cc2O[C@H]1CN(C)Cc1ccc(F)cc1,-1,-1,1.8,i
C[C@@H]1CCCCO[C@@H](CN(C)S(=O)(=O)c2cn(C)cn2)[C@H](C)CN([C@@H](C)CO)C(=O)c2cc(NC(=O)Nc3ccccc3)ccc2O1,-1,-1,-1.2,i
